# Cruzain noTriton = qHTS Assay for Promiscuous and Specific Inhibitors of Cruzain (without detergent); Cruzipain (Trypanosoma cruzi), P25779; purified cruzain, Z-FR-AMC fluorescence, no detergent; Potency, µM, for inactives: max response, negative = inhibition, hits mostly inhibitors; 200,000 tested, 2.3% active;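 also: plate controls were enzyme without inhibitor for no effect and buffer without enzyme for full effect; nearly all actives have a fitted effect of over 40% in size; top concentration of the series not given in the record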
# Target sequence (P25779 123-467 limits assumed): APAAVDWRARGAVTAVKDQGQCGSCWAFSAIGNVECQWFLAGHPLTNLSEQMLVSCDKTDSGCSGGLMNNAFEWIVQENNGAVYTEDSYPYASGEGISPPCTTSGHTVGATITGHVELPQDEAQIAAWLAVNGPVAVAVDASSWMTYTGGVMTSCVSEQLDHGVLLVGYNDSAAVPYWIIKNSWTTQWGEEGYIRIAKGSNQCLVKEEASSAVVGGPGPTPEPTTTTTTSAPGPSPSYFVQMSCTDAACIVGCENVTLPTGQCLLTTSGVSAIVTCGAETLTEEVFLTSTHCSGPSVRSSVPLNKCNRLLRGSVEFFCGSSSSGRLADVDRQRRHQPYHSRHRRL
#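 Purified cruzain at 1.5 nM, pre-incubated 15 min with compound at room temperature in 100 mM sodium acetate pH 5.5, 5 mM DTT, 0.00005% Triton X-100. Reaction started with 2 uM Z-FR-AMC; AMC fluorescence increase over 60 s gives rate.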
# MARV entry inh = qHTS for inhibitors of binding or entry into cells for Marburg Virus | 300,000 tested, 1.8% active | Marburg virus pseudotyped entry inhibition, cell reporter; control for the full effect not named in the record; about a third of the inactives were read at about 46 µM | AID 540276, 2011 | Potency, µM (titrated, usually from 37.8 µM), for the others: at the top dose activity change, negative = inhibition, most hits filed as inhibitors; active = well fitted inhibition curve with a large enough effect; inconclusive = small, poorly fitted or top-dose-only effect, or effect the other way; inactive = flat fitted curve, though single readings scatter; tested in HEK293 cells; about a fifth of its hits are not listed in these tables; also: % is scaled to controls: 0 for no effect and ±100 for the full control effect; luciferase read-out
# SARS PLpro yeast = qHTS of Yeast-based Assay for SARS-CoV PLP. S. cerevisiae expressing SARS-CoV PLpro, growth rescue; control for the full effect not named in the record. Potency, µM (titrated, usually from 32.9 µM), for inactives: at the highest dose activity, positive = growth rescue. 330,000 tested, 0.19% active. AID 485353, 2010; active means well fitted rising curve with a large enough effect; inconclusive means small, poorly fitted or top-dose-only effect; inactive means no such curve, though single readings can be large or run the other way; also: 0% is about no effect; nearly all actives have a fitted effect of over 55% in size; growth read by luminescence after 48 h
# RE007 growth inh = qHTS Assay for Inhibitors of the HIV-1 protein Vpr; S. pombe RE007 Vpr strain, BacTiter-Glo ATP luminescence, 24 h; control for the full effect not named in the record; Potency, µM (series often up to 92.2 µM), inactives show at the top dose activity change, negative = less growth; 360,000 tested, 0.21% active; active = well fitted falling curve with a large enough effect; inconclusive = small, poorly fitted or top-dose-only effect; inactive = no such curve, though single readings can be large or run the other way;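 also: % is scaled to controls: 0 for no effect and ±100 for the full control effect; nearly all actives have a fitted effect of over 50% in size; the assay follows cell death caused by Vpr and the record does not say whether a fall means rescue or toxicity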
#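 Fission yeast RE007 carrying one integrated HIV-1 vpr copy, seeded at OD 0.01 in PMG+AL medium with 23 nL pinned compound. Grown 24 h at 30 degrees; viability read by BacTiter-Glo luminescence after 5 min.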
# StopGo reporter = High Throughput Screening for Foot and Mouth Disease Virus Antivirals; human cells with a luciferase reporter of 2A StopGo recoding; control for the full effect not named in the record; Potency, µM (titrated, usually from 57.9 µM), without a hit: at the top dose signal change, negative = less light; 410,000 tested, 1.2% active; AID 1159524, 2015; active = well fitted falling curve with a large enough effect; inconclusive = small, poorly fitted or top-dose-only effect; inactive = no such curve, though single readings can be large or run the other way; tested in HEK293T cells; also: % is scaled to controls: 0 for no effect and ±100 for the full control effect; nearly all actives have a fitted effect of over 45% in size; luciferase light after 4 h
# Lassa entry inh = qHTS for Inhibitors of binding or entry into cells for Lassa Virus; 300,000 tested, 1.2% active; Lassa virus pseudotype entry inhibition, cell reporter; control for the full effect not named in the record; Potency, µM (doses to about 37.9 µM), inactives show at the top dose activity change, negative = inhibition, hits mostly inhibitors; active means well fitted inhibition curve with a large enough effect; inconclusive means small, poorly fitted or top-dose-only effect, or effect the other way; inactive means flat fitted curve, though single readings scatter; tested in HEK293 cells; also: % is scaled to controls: 0 for no effect and ±100 for the full control effect; nearly all actives have a fitted effect of over 50% in size; luciferase read-out
# Cruzain Triton = qHTS Assay for Promiscuous and Specific Inhibitors of Cruzain (with detergent). AID 1478, 2009. Cruzipain (Trypanosoma cruzi), P25779. purified cruzain, Z-FR-AMC fluorescence, 0.01% Triton. Potency, µM, for the others: max response, negative = inhibition, usual class: inhibitors. 200,000 tested, 0.43% active;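 also: plate controls were neutral wells for no effect and buffer without enzyme for full effect; nearly all actives have a fitted effect of over 40% in size; top concentration of the series not given in the record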
#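 Enzyme 1.5 nM, Z-FR-AMC 2 uM, NaOAc 100 mM pH 5.5, DTT 5 mM, Triton X-100 0.01%; 15 min RT compound preincubation; kinetic ex360/em450, 60 s delta.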
# NS1 function inh = qHTS Assay for Inhibitors of Influenza NS1 Protein Function | S. cerevisiae slowed by influenza A NS1, growth recovery by OD600 | Potency, µM (highest dose often 46.1 µM), for inactives: at the highest dose activity, positive = more growth | 270,000 tested, 0.4% active; active means well fitted rising curve with a large enough effect; inconclusive means small, poorly fitted or top-dose-only effect; inactive means no such curve, though single readings can be large or run the other way; also: nearly all actives have a fitted effect of over 50% in size
#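 OD600 was taken as the measure of yeast growth restored by compound in an NS1-expressing S. cerevisiae strain. Cells had been washed out of glucose medium and diluted 1:100 into galactose -URA medium, pH 6.0.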
# * hit, by the source's call; ? = inconclusive; / = not tested or not shown; & = joins results of further samples; [ ] = another dose, or the depositor's remark. Unless noted, calls follow the shape of the dose curve; as a rule, active = well fitted curve in the direction sought with a large enough effect; inconclusive = small, poorly fitted or top-dose-only effect, or another doubt; inactive = no such curve, though single readings can be large; an effect the other way counts as inactive or inconclusive. Potency is read from the fitted curve at half-maximal effect.
SMILES,Cruzain noTriton,MARV entry inh,SARS PLpro yeast,RE007 growth inh,StopGo reporter,Lassa entry inh,Cruzain Triton,NS1 function inh
COC(=O)[C@H](NC(=O)c1cc(-c2ccccc2)nc2ccccc12)c1ccccc1,?,?,/,7%[18.4 µM],-26%&-13%,?,?,-22%
Cc1ccc(S(=O)(=O)N2CCC(C(=O)N[C@@H](C)C(=O)NC3CCCCC3)CC2)cc1,-17%,6%,3%,0%,-12%,-23%,4.9%,-2%
CCC(C)(C)n1nnnc1C(c1ccc(N(C)C)cc1)N1CCN(C2CCCCC2)CC1 (stereo not drawn),18%,-29%,2%,-1%,?,14%,4.8%,?
O=C(COC(=O)CNC(=O)c1cccc([N+](=O)[O-])c1)NCc1ccco1,/,3%,0%,-6%,7%,-4%,/,/
CN(C)S(=O)(=O)c1ccc(C(=O)Nc2nnc(SCc3ccccc3)s2)cc1,3.2µM*,19%,-7%,-7%,-8%,-1%,-2.7%,8%
O=C(NCc1ccc2c(c1)OCO2)c1ccc2c(c1)C(=O)N(CC1CCCO1)C2=O (stereo not drawn),-3%,11%,1%,4%,-23%,-2%,-1.5%,-4%
Cc1ccc(N(CC(=O)N2CCN(c3ccccc3F)CC2)S(=O)(=O)c2c(C)noc2C)cc1,2%,?,/,-6%,-12%&-5%,?,-2.2%,6%
COC(=O)[C@H](Cc1ccccc1)NC(=O)NCCc1ccc(F)cc1,/,?,-1%,19%,-12%,?,/,-4%
COc1ccccc1-c1noc(-c2ccco2)n1,11%,?,7%,-24%,36%[activator],?,3.4%,-20%
CCOC(=O)C1(CCOC)CCN(Cc2ccc3nonc3c2)CC1,/,/,0%,-1%,0%,/,/,-9%
Cc1c(Nc2nc3ccccc3nc2N2CCN(c3ccccc3)CC2)c(=O)n(-c2ccccc2)n1C,19%,-16%,-6%,30%,-12%,?,-3.9%,22%
COc1ccccc1CNC(=O)OCc1nccnc1C(=O)Nc1ccc(Br)cn1,/,/,-7%,-1%,4%,/,/,-9%
O=C(Oc1ccc(-c2cnc3ccccc3n2)cc1)c1cccc([N+](=O)[O-])c1,?,20%,-5%,-3%,2%,0%,1.2%,0%
CCc1ccc(-n2c(=O)c3ccc(C(=O)NCCc4ccccc4)cc3n(Cc3ccccc3C#N)c2=O)cc1,-3%,?,/,/,0%,2%[46.1 µM],7.7%,/
N#Cc1ccccc1Oc1ccccc1C=O,/,1%,-2%,0%,-10%,-16%,/,-1%
COc1ccc(C)cc1NC(=O)C1CCC(CNc2c(N3CCOCC3)c(=O)c2=O)CC1 (stereo not drawn),-8%,-3%,5%,11%,-1%,/,0.8%,-9%
O=C(NC(=S)NC1CCS(=O)(=O)C1)c1ccccc1F (stereo not drawn),/,-2%,-4%,1%,8%,-5%,/,8%
Nc1nc(N)c2c(n1)CCCC2,/,/,2%,-4%,-2%,/,/,-1%
N/C(=N\OC(=O)Nc1ccccc1)c1cccc(C(F)(F)F)c1,/,/,1%,-14%,31%[activator],/,/,5%
CCOC(=O)N1CCN(CC(=O)NC(=O)Nc2ccc3c(c2)OCCO3)CC1,/,8%,3%,4%,-8%,11%,/,/
Cc1ccc(Nc2nc(=O)c3cccnc3s2)cc1,1%,?,-2%,-5%,/,?,-2.1%,-62%
CCNC(=O)c1ccc(NC(=O)N2CCCCc3ccccc32)cc1,19%,/,/,/,-17%,-2%[46.1 µM],-0.4%,/
Cc1ccc(C2C(C#N)=C(N)Oc3n[nH]c(-c4cccs4)c32)s1 (stereo not drawn),-8%,1%,-6%,2%,-2%,-1%,-3.9%,-1%
CC1CCN(CCCN2C(=O)C3C(C(=O)Nc4cccc(Cl)c4)C4C=CC3(O4)C2C(=O)NC2CCCCC2)CC1 (stereo not drawn),/,?,1%,?,1%,?,/,5%
COC(=O)C1=C(CS(=O)(=O)c2ccc(C)cc2C)NC(=O)NC1c1ccc(C)cc1 (stereo not drawn),1%,-19%[46.1 µM],/,/,-17%,-19%[46.1 µM],-3.5%,/
Cc1ccnc(NC(=O)c2ccc(OCC3CCCO3)cc2)c1 (stereo not drawn),/,3.5µM*,-2%,?,16µM*,6.3µM*,/,/
CN(CC(=O)Nc1ccc(F)c(F)c1)S(=O)(=O)c1cccc2cccnc12,/,/,2%,2%,?,/,/,10%
C=CCSc1ncnc2sc(C)c(C)c12,-9%,0%,2%,-25%,-9%,-6%,-0.3%,6%
O=C(CSc1nc2ccsc2c(=O)n1NC(=O)c1ccccc1)NCc1ccco1,-7%,7%,5%,2%,30%,?,1.8%,-5%
COc1cccc(NC(=O)c2nc(SC)ncc2Cl)c1,/,24%[46.1 µM],-6%,-5%,-3%,0%[46.1 µM],/,-3%
CC(C)(C)N(NC(=O)c1ccccc1)C(=O)c1cccc(C(=O)N(NC(=O)c2ccccc2)C(C)(C)C)c1,12%,?,5%,3%,-3%,-12%,5.8%,-10%
Cc1cccc(OCCCSc2nc3ccc(C)cc3[nH]2)c1,-2%,-3%,-23%,?,16%,?,-3.3%,-45%
COc1ccc2[nH]c(C(=O)N3CCc4ccccc4C3)c(C)c2c1,/,/,-23%,-3%,19%,/,/,-9%
COC(=O)c1ccccc1COn1c(=O)c(C)[n+]([O-])c2ccccc21,-22%,24%,1%,14%,-9%,21%,-22%,5%
CC(=NCc1cccnc1)c1c(O)n(-c2ccccc2C)c(=O)[nH]c1=O,3%,-3%,3.5µM*,-11%,-8%,7%,3.3%,8%
CCN1CCN(C(=O)CN(CCc2ccccc2)S(C)(=O)=O)CC1,-1%,-17%,-3%,-12%,/,6%,-8.5%,4%
Cc1ccc(-c2[nH][nH]c(=O)c(=O)c2N=Nc2ccccc2)cc1,/,/,7%,-5%,-10%,/,/,6%
Cn1nc(C(=O)N2CCN(c3ccccc3)CC2)c2c1-c1ccccc1S(=O)(=O)C2,5%,/,-1%,2%,9%&-18%,20%[46.1 µM],-1.5%,-17%
COc1ccc(CCNc2nc(Cl)nc(NC(C)(C)CO)n2)cc1OC,/,/,-8%,0%,-18%,/,/,16%
CCN(CC)c1cc(NC2CCCCC2)c2c3c(onc13)-c1ccccc1C2=O,?,14%[46.1 µM],/,/,-25%,1%[46.1 µM],-3.1%,/
CC(=O)c1cccc(NC(=O)NNC(=O)c2ccc3ccccc3c2)c1,/,/,-2%,-13%,2%,/,/,7%
CCCCCn1c(=O)[nH]c2cc(C(=O)N3CCN(c4cccc(Cl)c4)CC3)ccc2c1=O,7%,28%[46.1 µM],/,/,?,-17%[46.1 µM],-4.3%,/
CCc1nc(SCC(N)=O)c2c(=O)n(C)c(=O)n(C)c2n1,-1%,/,10%,1%,-23%,/,-5.2%,3%
Cc1ccc(OCC(O)Cn2c(=N)n(Cc3ccccc3)c3ccccc32)cc1 (stereo not drawn),0%,?,-3%,24%,0%,?,3.5%,-31%
COc1cc(OC)nc(NC(=O)C(C)C)n1,3%,-1%,-3%,11%,-13%,/,8.0%,-4%
O=C(NC1CC(=O)N(c2ccccc2)C1)c1ccco1 (stereo not drawn),-13%,/,/,/,-13%,0%[46.1 µM],-0.4%,/
CCN(CC)CCN1C(=O)C(O)=C(C(=O)c2cccs2)C1c1ccccn1 (stereo not drawn),-10%,14%,14%,-8%,32%[activator],-31%[14.3 µM],-4.3%,9%
COc1ccccc1Cc1nc2ccccc2nc1SCC(=O)Nc1cc(Cl)ccc1OC,?,/,/,/,-3%,19%[46.1 µM],0.4%,/
CCN(CC)CCCNC(=O)Cn1ncc2c(=O)oc3ccc(C)cc3c21,0%,/,3%,3%,-21%,/,4.4%,-11%
COc1ccccc1/C=C/C(=O)NCc1ccccn1,/,?,-1%,-20%,13%,0%[46.1 µM],/,-2%
CCOC(=O)c1ccc(NC(=S)N2CCCC(C)C2)cc1 (stereo not drawn),/,18%[46.1 µM],-1%,0%,60%[activator],-17%,/,-4%
COc1ccc(C(=O)NCC(=O)OCC(=O)c2ccc(Cl)cc2)cc1OC,/,24%[46.1 µM],-1%,-16%,-6%,1%[46.1 µM],/,2%
CCOC(=O)CC(NC(=O)C1c2ccccc2Oc2ccccc21)c1ccccc1Cl (stereo not drawn),-9%,?,1%,-12%,-8%,-2%,0.0%,-5%
C=CCNC(=O)CC1C(=O)NCCN1Cc1ccc(-c2ccccc2)cc1 (stereo not drawn),/,/,0%,-8%,?,/,/,1%
Cc1cn(C)c(CC(=O)NCc2ccccc2Cl)c1C(=O)O,11%,/,/,/,-7%,-10%[46.1 µM],-0.5%,/
COc1ccccc1C(=O)NC1(C(F)(F)F)C(=O)Nc2c1c(=O)[nH]c(=O)n2-c1ccc(F)cc1 (stereo not drawn),-10%,3%[46.1 µM],/,/,3%,-4%[46.1 µM],5.1%,/
CCN(CC)CCCNC(=O)Cc1ccc(NC(=O)N2CCCCc3ccccc32)cc1,-3%,/,/,/,10%,-1%[46.1 µM],-2.2%,/
O=[N+]([O-])c1cccc(S(=O)(=O)N2CCc3ccccc3C2)c1,/,/,5%,6%,-2%,/,/,27%
COc1cc(NC(=O)CSc2ncc(S(=O)(=O)c3ccc(Br)cc3)c(=O)[nH]2)cc(OC)c1,?,?,/,/,?,/,?,/
Nc1c(C(=O)CSc2nnnn2-c2ccccc2)c(=O)[nH]c(=O)n1C1CC1,/,17%[46.1 µM],-11%,?,-2%,2%[46.1 µM],/,/
Cc1cc(C)c(NC(=O)CCc2c(C)nc3c(c(C)nn3C(C)(C)C)c2C)c(C)c1,-11%,-5%[46.1 µM],/,/,-16%,-3%[46.1 µM],1.7%,/
CCc1cccc2c(C(=O)C(F)(F)F)cn(CC(=O)N3CCOCC3)c12,/,/,0%,-13%,-1%,/,/,-2%
Cc1ccc(NC(=O)CN2CCc3ccccc3C2)cc1F,/,?,-3%,12%,2%,25%,/,-5%
